Sa growth 42C: blocks Staphylococcus aureus growth; S. aureus RN4220 growth, OD600, 20 h, 42 °C; stronger effect = lower value; relative growth, % (no concentration beside the values); actives 0.53% (n = 170,000); AID 720641;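 active means growth at 42 °C up to 50% and 20 or more points under that at 30 °C, or under 10% at both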;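 further: 300 nL library stock went into each well; scaled to the means of positive and negative controls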
GIV-Gai inh: blocks GIV peptide binding to rat Galpha-i3 | AID 1224905 | actives 0.42% (n = 210,000) | Galpha-i3/FITC-GIV peptide fluorescence polarization, 90 min; stronger effect = lower value; scaled: aluminum fluoride 0%, vehicle 100% | percent of control (FP), % (test concentration not listed);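 active means replicate mean at 85% of control or lower, very high polarization wells dropped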;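 further: wells of about 15 µL received 100 nL stock; the first replicate is given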
Target sequence (P08753 whole entry, looked up): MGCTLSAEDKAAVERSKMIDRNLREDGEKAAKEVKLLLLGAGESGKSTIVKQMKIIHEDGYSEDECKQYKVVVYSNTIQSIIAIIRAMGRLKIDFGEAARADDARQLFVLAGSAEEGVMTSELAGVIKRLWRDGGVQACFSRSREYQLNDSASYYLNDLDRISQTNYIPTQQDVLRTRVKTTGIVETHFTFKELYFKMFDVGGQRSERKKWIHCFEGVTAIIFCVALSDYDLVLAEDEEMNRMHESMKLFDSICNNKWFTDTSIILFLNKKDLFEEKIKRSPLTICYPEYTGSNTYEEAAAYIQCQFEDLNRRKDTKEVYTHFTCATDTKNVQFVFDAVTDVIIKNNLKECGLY
HCMV UL50-53 inh: inhibitors of HCMV UL50-UL53 nuclear egress complex interaction; HTRF UL50-UL53 interaction, normalized percent inhibition; inhibition, % (test concentration not listed); actives 0.15% (n = 190,000); AID 1918969;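 active means both replicates at 50% or more, plus weaker picks with an unusually low signal ratio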;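 further: stock transfer was 100 nL into about 20 µL; 0% = negative control wells and 100% = wells with untagged competitor protein; inactives centre near -12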
Sa growth 42C second temp: further read-out of Sa growth 42C, marked with its call; relative growth, %; measured here: growth at 30 °C;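 optical density after 20 h as mean of two plates; 100% = untreated growth and lower means inhibition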
Starred values were filed as active, the others as inactive; . = no result given; & = joins results of further samples.

SMILES	Sa growth 42C	Sa growth 42C second temp	GIV-Gai inh	HCMV UL50-53 inh
Cc1cc(C)c(NC(=O)c2cc3c(=O)n4ccccc4nc3n2C)c(C)c1	107	90	100	-67
Cc1cccc(CNC(=O)CSCc2cnn(-c3ccccc3)c2-n2cccc2)c1	89	86	106	-17
Cc1cccc(C(=O)NC(c2n[nH]c(=S)n2C)C(C)C)c1 (stereo not drawn)	93	62	111	0
Cc1ccc(Oc2ncccc2NS(=O)(=O)c2ccc(-c3ccccn3)s2)c2c1CCC2	102	95	105	-9
Cc1cccc(N2CCN(c3ncnc4c3nc3n4CCCCC3)CC2)c1C	93	90	102	.
c1ccc(CCn2c3ccccc3c3nnc(SCCN4CCOCC4)nc32)cc1	96	78	98	-20
CC(=O)Nc1ccc(NC(=O)COC(=O)C2(c3ccc(Cl)cc3)CCCC2)cc1	100	91	.	-8
O=C(NCCCN1CCCCC1)c1ccc2c(c1)sc1nc(-c3ccccc3)cn12	88	46	108	.
CCn1ccc2c(OCC(=O)NCc3ccc(F)cc3)cccc2c1=O	109	88	99	.
CCOC(=O)c1cn[nH]c1S(=O)(=O)N1CCOCC1	.	.	96	-22

A different layout for part of the listing above:
molecule,Sa growth 42C,Sa growth 42C second temp,GIV-Gai inh,HCMV UL50-53 inh
Cc1cc(C)c(NC(=O)c2cc3c(=O)n4ccccc4nc3n2C)c(C)c1,107,90,100,-67
Cc1cccc(CNC(=O)CSCc2cnn(-c3ccccc3)c2-n2cccc2)c1,89,86,106,-17

Returning to the listing, starting seven compounds before the break.
SMILES	Sa growth 42C	Sa growth 42C second temp	GIV-Gai inh	HCMV UL50-53 inh
Cc1ccc(Oc2ncccc2NS(=O)(=O)c2ccc(-c3ccccn3)s2)c2c1CCC2	102	95	105	-9
Cc1cccc(N2CCN(c3ncnc4c3nc3n4CCCCC3)CC2)c1C	93	90	102	.
c1ccc(CCn2c3ccccc3c3nnc(SCCN4CCOCC4)nc32)cc1	96	78	98	-20
CC(=O)Nc1ccc(NC(=O)COC(=O)C2(c3ccc(Cl)cc3)CCCC2)cc1	100	91	.	-8
O=C(NCCCN1CCCCC1)c1ccc2c(c1)sc1nc(-c3ccccc3)cn12	88	46	108	.
CCn1ccc2c(OCC(=O)NCc3ccc(F)cc3)cccc2c1=O	109	88	99	.
CCOC(=O)c1cn[nH]c1S(=O)(=O)N1CCOCC1	.	.	96	-22
COc1ccc(CCNC(=O)Cc2coc3c(C)c(C)ccc23)cc1OC	105	88	103	-10
CCC(C)Cn1c(CN2CCCCC2)nc2ccccc21 (stereo not drawn)	.	.	102	-6
CN(C)CC(C)(C)C1OCC2(CO1)COC(C(C)(C)CN(C)C)OC2 (stereo not drawn)	97	82	102	-3
CCOCCCNC(=O)Cn1cc2c(n1)-c1c(oc(C(=O)N3CCCC3)c1C)CC2	112	91	97	.
CN1CCC(=NNc2ncnc3sc4c(c23)CCCC4)CC1	118	93	.	2
Oc1ccc(Br)cc1C=NCCC1=CCCCC1	95	98	.	7
CCOC(=O)C1CCN(S(=O)(=O)Cc2ccccc2)C1=O (stereo not drawn)	118	93	99	6
Cn1c2ccccc2c2n[nH]c(=O)nc21	73	62	103	-119
COC(=O)c1cc(-c2ccc(OC)c(OC)c2)n[nH]1	80	84	101	-1
O=C(c1cc2n(n1)C(C(F)(F)F)CC(c1ccco1)N2)N1CCCCC1 (stereo not drawn)	95	91	102	.
O=C(Cn1nc(C(=O)O)c2ccccc2c1=O)Nc1ccc(N2CCCCC2)cc1	104	89	.	-12
Cc1cccc(CCNC(=O)Nc2cn(C)c(=O)c3ccccc23)c1	110	106	99	13
Cc1ccc2c(c1)c(=O)c1ccccc1n2CC(=O)N1CCN(c2ccccc2F)CC1	.	.	105	-10
Cn1cnnc1SC(C(=O)Nc1cccc(C(F)(F)F)c1)c1ccccc1 (stereo not drawn)	102	93	.	-10
Cn1c2ccccc2c2nnc(SCC(=O)Nc3nnc(COc4ccccc4)s3)nc21	89	77	102	-21
Cc1ccc(CN(C(=O)c2ccc(F)cc2)c2ccccn2)o1	107	86	106	-22
COc1ccc(OC)c(S(=O)(=O)/N=C2\C=C3N(CCO)CCOC3(O)c3ccccc32)c1 (stereo not drawn)	63	52	100	-52
Cc1ccc(S(=O)(=O)N2CCCN(C(=O)OC(C)(C)C)CC2)cc1	106	83	102	.
COc1cc2[nH]c(=O)n(CCCC(=O)N3CCc4ccccc4C3)c(=O)c2cc1OC	107	83	100	-10
COC(=O)c1c(-c2ccc(Br)cc2)noc1N	91	66	99&102	-34
Cc1ccc(NC(=O)c2ccc3c(c2)NC(=O)CO3)cc1	.	.	105	16
O=S(=O)(Nc1ccc(C(F)(F)F)cn1)c1ccc(-c2ccccn2)s1	79	82	106	-30
CC1(C)CC(=O)C=C(Nc2ccccc2)C1	91	83	99	.
O=C(NCc1ccccc1)c1cccc(C2CCCN(C(=O)c3ccccc3)C2)c1 (stereo not drawn)	.	.	104	6
CC(=O)NC1=NC(=O)/C(=C/c2ccc(-c3ccc(C)c(Cl)c3)o2)S1	.	.	102	-27
Cc1nn(-c2ccccc2)c2sc(C(=O)OCCCc3nc(-c4ccccc4)no3)cc12	142	93	.	-10
Brc1cc2c(cc1Cn1nnc(-c3cccs3)n1)OCO2	95	92	.	-1
Cc1ccc(NC(=O)N(C)CCc2noc(C3CCCCC3)n2)c(C)c1	.	.	109	-2
COC(=O)c1ccc(C2C3=C(CC(c4ccc(OC)cc4)CC3=O)Nc3ncnn32)cc1 (stereo not drawn)	.	.	103	4
CCNc1nc(-c2ccccc2F)no1	.	.	96	10
CCCN(CCC)c1nn2c(=O)c(C(=O)NCC)cnc2s1	111	85	106	-14
O=C(CN1C(=O)C2C3C=CC(C3)C2C1=O)NC1CCCc2ccccc21 (stereo not drawn)	109	87	104	.
NCCSc1ccccc1	94	100	.	-6
CNC(=S)NC1CC2CCCC(C1)N2Cc1ccco1 (stereo not drawn)	83	80	103	-27
C(=N\c1nccs1)/c1cccc2c1OCOC2	118	53	.	-11
CCN(CC)c1nc(C)nc(Cl)c1Cc1ccccc1	82	94	115	-33
O=C(Cn1cc(SCc2cccc(C(F)(F)F)c2)c2ccccc21)N1CCCCCC1	118	114	105	.
CC(C)=CC1C(C(=O)N/N=C(\C)c2cc(F)ccc2O)C1(C)C (stereo not drawn)	96	91	.	-2
Cc1ccc2[nH]c(=O)c(CN(C(=O)NC3CCCCC3)C3CCCCC3)cc2c1	101	92	99	-5
O=C(NCc1ccc2c(c1)OCO2)c1nnc(Cc2ccc(Cl)cc2)o1	93	96	102	1
CC1(C)S[C@@H]2[C@H](NC(=O)C(C(=O)O)c3ccccc3)C(=O)N2[C@H]1C(=O)O (stereo partly drawn)	0.0*	-0.1*	.	3
Cc1occc(=O)c1OC(=O)c1ccccc1F	100	91	.	-20
Cc1ccc(S(=O)(=O)NCCc2nnc3ccc(SCC(=O)Nc4c(C)cc(C)cc4C)nn23)cc1	122	84	101	.
O=C(CSc1nnc(-c2ccoc2)c(-c2ccoc2)n1)c1ccc(-c2ccccc2)cc1	74	40	108	-9
CCCCc1c(C)[nH]n(-c2nc(C)c(C(=O)N3CCN(c4ccccc4)CC3)s2)c1=O	.	.	100	-21
C1=CC2C(C1)CC2NCCc1nnc2ccccn12 (stereo not drawn)	91	97	.	19
Cc1cccc(NC(=O)COC(=O)/C=C/c2ccc(F)cc2)c1C	100	82	97	.
O=C1c2[nH]nc(-c3ccc(Br)cc3)c2C(c2cccs2)N1c1ccc(Cl)cc1 (stereo not drawn)	94	68	104	.
CCCN1CCC(NC2CCN(Cc3ccccc3)CC2)CC1	106	107	97	-16
CCOC(=O)Cn1c(=O)oc2cc(S(=O)(=O)NC(C)c3ccccc3)ccc21 (stereo not drawn)	105	90	89	-30

(cont.)
SMILES	Sa growth 42C	Sa growth 42C second temp	GIV-Gai inh	HCMV UL50-53 inh
Cc1cccc(N(C)S(=O)(=O)c2ccsc2-c2nc(C)no2)c1	.	.	104	-17
COc1ccc(OC)c(NC(=O)Cn2cc(S(=O)(=O)c3ccccc3)c(=O)c3cc(C)ccc32)c1	105	84	102	-28
O=C(O)CN1C(=O)[C@@H]2Cc3ccccc3CN2C1=O	.	.	100	-15
CCOC(=O)N(c1ccccc1)S(=O)(=O)c1ccccc1C	121	100	.	-2
COc1ccc2c(c1)c(=O)c(C(=O)c1ccc(C)cc1)cn2Cc1ccccc1F	90	68	97	-25
CCc1ccc(-n2nc(CO)c(C(=O)NC(C)c3ccc(Cl)cc3)n2)cc1 (stereo not drawn)	106	89	105	-11
O=C(COc1nsnc1N1CCOCC1)N/N=C/c1cccc(Br)c1	96	78	101	-24
c1ccc(-c2noc(-c3ccc(N4CCOCC4)nn3)n2)cc1	.	.	97	-20
CCN1CCCC1CNC(=O)CCCn1c(C)c2cnn(-c3ccccc3)c(=O)c2c1C (stereo not drawn)	95	91	104	6
CSc1n[nH]c(N)c1-c1ccccn1	82	84	106	-34
CCOc1ncccc1C(=O)OCc1cc(=O)oc2c(C)c(C)ccc12	92	96	.	-4
COc1cccc2c1NC(c1ccc(F)cc1)C1CC=CC21 (stereo not drawn)	.	.	113	-26
CSc1ccccc1NC(=O)CN(C)C(C)C(=O)Nc1cccc(C#N)c1 (stereo not drawn)	102	94	.	4
CC(=O)Nc1ccc(NC(=O)Cn2cc3c(n2)CCCCC3)cc1	94	96	101	4
C=CCOc1nc(NC(C)C)nc(NC(C)C)n1	93	92	95	-7
COc1ccc(NC(=O)C2CCN(c3nc4ccccc4[nH]3)CC2)cc1OC	90	88	100	.
CCCn1c(C)ccc(-c2noc(CCCC(=O)NCc3ccccc3)n2)c1=O	.	.	103	-28
CCn1c(=O)c2cc(C(=O)NCc3cc(OC)ccc3OC)sc2c2ccccc21	106	84	105	-2
CCCN1C(=O)c2c(-n3cccc3)c3cc(C)ccc3n2CC1(C)C(=O)NC1CCCC1 (stereo not drawn)	.	.	102	-11
O=C(OCc1cc(=O)n2cc(Br)ccc2n1)c1ccco1	102	90	.	-48
COc1ccc(N(C=O)C(C(=O)Nc2c(C)cccc2C)c2ccc(Cl)cc2)cc1 (stereo not drawn)	103	62	.	-6
CC1(C)CC2CC(C)(CN2S(=O)(=O)c2ccccc2C(F)(F)F)C1 (stereo not drawn)	77	92	.	-11
Cc1c(NS(=O)(=O)c2ccc3c(c2)NCCS3)c(=O)n(-c2ccccc2)n1C	.	.	102	6
CC(C)CCOc1cccc(OCC(=O)Nc2ccncc2)c1	82	29	.	-16
Cc1ccc(N(CCCCN2C(=O)c3ccccc3C2=O)C(=O)c2sc3ccccc3c2Cl)cc1	.	.	102	5
NC(=O)c1cccc2c3c([nH]c12)CCCC3	92	78	102	-42
O=C(Cn1cnc2c([nH]c3ccc(Br)cc32)c1=O)N1CCN(c2ccc(F)cc2)CC1	.	.	102	-1
COc1ccc(-n2cc(C(=O)Oc3cc(C)cc(C)c3)c3ccccc3c2=O)cc1	103	102	113	.
O/N=C/c1ccc2c(c1)CCO2	103	95	103	3
Cn1cc(S(=O)(=O)N2CCc3ccccc32)cc1C(=O)N1CC=C(c2ccccc2)CC1	.	.	109	-4
COC(=O)c1ccc(Oc2ccc(C(=O)OC)cc2)cc1	112	112	108	-3
Fc1ccc(-c2nc(Nc3cccc(Cl)c3)nc3c2COc2ccccc2-3)cc1	93	98	108	3
Cc1ccccc1C(=O)N=C1NC(=O)C(C)S1 (stereo not drawn)	91	80	102	-19
O=S(=O)(NCC1CCCO1)c1ccc(S(=O)(=O)N(Cc2ccc(F)cc2)C2CCCCC2)cc1 (stereo not drawn)	.	.	106	8
COc1ccc(C(=O)Nn2c(-c3cc(OC)c(OC)c(OC)c3)nc3ccccc3c2=O)c(OC)c1	.	.	105	-25
COC(=O)c1ccccc1S(=O)(=O)N1CCC(C(=O)NCCN2C(=O)S/C(=C\c3cccnc3)C2=O)CC1	77	88	.	-64

Compounds listed so far that contain a thiophene ring, fused or not (nine):
SMILES	Sa growth 42C	Sa growth 42C second temp	GIV-Gai inh	HCMV UL50-53 inh
Cc1ccc(Oc2ncccc2NS(=O)(=O)c2ccc(-c3ccccn3)s2)c2c1CCC2	102	95	105	-9
CN1CCC(=NNc2ncnc3sc4c(c23)CCCC4)CC1	118	93	.	2
O=S(=O)(Nc1ccc(C(F)(F)F)cn1)c1ccc(-c2ccccn2)s1	79	82	106	-30
Cc1nn(-c2ccccc2)c2sc(C(=O)OCCCc3nc(-c4ccccc4)no3)cc12	142	93	.	-10
Brc1cc2c(cc1Cn1nnc(-c3cccs3)n1)OCO2	95	92	.	-1
O=C1c2[nH]nc(-c3ccc(Br)cc3)c2C(c2cccs2)N1c1ccc(Cl)cc1 (stereo not drawn)	94	68	104	.
Cc1cccc(N(C)S(=O)(=O)c2ccsc2-c2nc(C)no2)c1	.	.	104	-17
CCn1c(=O)c2cc(C(=O)NCc3cc(OC)ccc3OC)sc2c2ccccc21	106	84	105	-2
Cc1ccc(N(CCCCN2C(=O)c3ccccc3C2=O)C(=O)c2sc3ccccc3c2Cl)cc1	.	.	102	5

Compound activity deposited in PubChem by ICCB-Longwood Screening Facility, Harvard Medical School.
